High-throughput results: PubChem, National Center for Advancing Translational Sciences (NCATS)
Rango complex inh = Rango-importin beta binding inhibition; Q14974; actives 0.031% (n = 340,000); Rango CFP/YFP FRET sensor + importin beta, 45 min; Potency, µM (top dose mostly 92.2 µM), without a hit: at the top dose inhibition of complex formation; active = rising FRET ratio curve, often small or poorly fitted; inconclusive = mostly compound fluorescence or quenching in the first reads; inactive = flat curves in all reads;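 note: potency is the fitted concentration of half-maximal effect; 0% = DMSO wells and 100% = buffer wells lacking importin beta; nearly all actives have a fitted effect of over 15% in size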
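FRET biosensor (snurportin 1 IBB flanked by EYFP and cerulean), 50 nM, with compound 5 min, then 0.125 microM importin beta in PBS, 1 mM DTT, 0.02% Tween-20, 0.1% BSA. CFP/YFP ratio read after 45 min at room temperature; pre-read flags interference.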
Rango release inh = inhibitors of RanGTP-induced Rango-importin beta complex dissociation; O95149+P62826; Biochemical FRET Rango-importin beta, RanGTP-induced dissociation; Potency, µM (titrated, usually from 46.1 µM), without a hit: at the highest dose activity change, negative = inhibition; actives 0.071% (n = 340,000); AID 540253; active means falling FRET ratio curve, often poorly fitted, with flat reads before Ran was added; inconclusive means other falling curves, or compound fluorescence or quenching; inactive means flat or rising ratio curve;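 note: potency is the fitted concentration of half-maximal effect; % of control where 0% means no effect; nearly all actives have a fitted effect of over 45% in size; -100% = wells without RanGTP and RCC1; the record marks most hits as doubtful in a second field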
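FRET read at 45 min, room temperature: inhibitors block the CFP/YFP signal rise when RanGTP (0.6 uM Ran, 2 mM GTP, 0.2 uM RCC1) frees Rango (0.1 uM) from importin beta (0.25 uM). Pre-read after 5 min compound exposure flags interference.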
GLA inh pH 4.5 = alpha-galactosidase A (human) inhibition, pH 4.5; P06280; purified enzyme, 4-MU-alpha-Gal fluorescence, pH 4.5; activity change, negative = inhibition, % at 105 µM; 230,000 tested, under 10 active; AID 1467; inconclusive = small, poorly fitted or top-dose-only inhibition, or a rising curve; inactive = flat fitted curve, though single readings scatter; no compound was filed as active;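 note: 0% = full activity with enzyme and -100% = basal without enzyme; dose as in the result columns while the protocol names 77 µM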
Target sequence (P06280 whole entry, looked up): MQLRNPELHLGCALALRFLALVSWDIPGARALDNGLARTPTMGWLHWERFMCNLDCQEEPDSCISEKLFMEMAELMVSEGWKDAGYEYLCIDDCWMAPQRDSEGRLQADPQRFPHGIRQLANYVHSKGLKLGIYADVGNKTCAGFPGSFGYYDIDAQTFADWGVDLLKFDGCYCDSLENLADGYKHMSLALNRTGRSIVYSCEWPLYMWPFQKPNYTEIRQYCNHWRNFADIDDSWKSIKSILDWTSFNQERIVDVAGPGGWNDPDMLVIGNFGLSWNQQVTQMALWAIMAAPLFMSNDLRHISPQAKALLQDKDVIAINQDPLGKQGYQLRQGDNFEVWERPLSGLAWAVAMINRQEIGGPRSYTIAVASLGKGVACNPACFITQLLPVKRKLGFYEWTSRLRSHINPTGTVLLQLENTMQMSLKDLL
miR-21 FLuc = miR-21 reporter, rising signal; HeLa miR-21 FLuc reporter, luciferase, 48 h; Potency, µM (series often up to 38.3 µM), without a hit: top-dose reporter change, positive = more light; 340,000 tested, under 10 active; active = well fitted rising curve with a large enough effect; inconclusive = small, poorly fitted or top-dose-only effect; inactive = no such curve, though single readings can be large or run the other way;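 note: % of control where 0% means no effect; miR-21 action dims this reporter so a rising signal means less miR-21 action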
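HeLa cells stably expressing CMV-driven firefly luciferase with a downstream miR-21 binding sequence, endogenously expressing miR-21, were treated with titrations (up to about 40uM final) for 48 hours at 37 degree Celsius. Luciferase luminescence was read after lysis.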
An asterisk follows results filed as active; ? = inconclusive; · = not tested or not shown; & = joins results of further samples. The list is partial; rates above refer to the full screens.

SMILES | miR-21 FLuc | Rango release inh | Rango complex inh | GLA inh pH 4.5
CCC1CCc2c(sc3nc(SCC(=O)NCc4ccco4)n(-c4ccccc4)c(=O)c23)C1 (stereo not drawn) | 0.0% | 0.0% | -0.5% | 2.3
Cc1occc1C(=O)n1cnc2ccccc21 | -2.2% | · | · | 1.6
CCOc1cccc(/C=N/NS(=O)(=O)c2ccc(C)c([N+](=O)[O-])c2)c1O | -4.6% | 22.3% | -0.1% | 8.4
O=C(NCC(c1ccco1)N1CCCCC1)c1cccc(NS(=O)(=O)c2ccc(Br)cc2)c1 (stereo not drawn) | · | 16.5% | 3.2% | ·
O=C(NCc1ccncc1)C1CCC(=O)N(CCc2ccc(Cl)cc2)C1 (stereo not drawn) | 1.1% | 0.1% | -1.9% | ·
O=C(C1CCN(c2nnc(-n3cccc3)s2)CC1)N1CCN(Cc2ccc3c(c2)OCO3)CC1 | 5.1% | 9.8% | 4.8% | 12.7
COc1ccccc1CNC(=O)c1ccc(S(=O)(=O)N(C)c2ccccc2)cc1 | · | 8.0% | -0.8% | ·
O=S1(=O)CCN2C(c3ccco3)=CSC2=N1 | -5.3% | -11.9% | -1.7% | 1.8
COc1ccc(CCNC(=O)CC2SC(=NCCc3ccccc3)NC2=O)cc1 (stereo not drawn) | -10.9% | -5.2% | -0.3% | -2.0
Cc1oc(-c2cccc(Cl)c2)nc1CN1CCCC(C(=O)NC(C)c2ccc3c(c2)OCCO3)C1 (stereo not drawn) | ? | 3.7% | -4.4% | -9.0
C=Cc1c(C)c2cc3[nH]c(cc4nc(cc5nc(cc1[nH]2)C(C)=C5CCC(=O)O)C(CCC(=O)O)=C4C)c(C)c3C=C | · | 22.2%&-14.9% | ? | -6.6&-4.9
COC(=O)Nc1c(-c2ccccc2)nc2ccc(C)cn12 | -4.3% | -24.0% | 3.0% | 2.4
COc1ccccc1OCCNC(=O)Nc1cc(F)c(F)cc1Cl | -1.8% | 0.1% | 2.8% | -3.6
Cc1cccc(-n2ccnc2SCC(=O)Nc2nnc(C)s2)c1 | 9.7% | 2.0% | -0.2% | -4.0
O=c1c2oc3nc4c(cc3c2ncn1CCCc1ccccc1)CCCC4 | -18.1% | 1.2% | -0.6% | -2.5
O=C(c1cccc([N+](=O)[O-])c1)c1ccc2c(c1)OCCOCCOCCO2 | -1.3% | 8.6% | -0.6% | -0.1
CCOC(=O)c1[nH]ncc1CN1CCc2ccc(NC(=O)C3CCCO3)cc2C1 (stereo not drawn) | -2.9% | 8.9% | -0.4% | ·
N#Cc1ccccc1S(=O)(=O)N1CCN(C(=O)Cc2coc3cc(O)ccc23)CC1 | · | -3.1% | -0.1% | ·
COc1ccc2c(c1)c(C(C)=O)c(C)n2-c1ccccc1OC | · | -0.6% | 3.0% | ·
CCN(Cc1cnn(C)c1)C(=O)c1cc(COc2ccc3c(c2)CCCC3)on1 | 0.8% | 3.8% | -4.6% | ·
CC1(c2ccccc2)NC(=O)N(CC(=O)Nc2ccc([N+](=O)[O-])cc2)C1=O (stereo not drawn) | 4.9% | 6.2% | -2.9% | 0.5
Nc1c(Cl)ncnc1N/N=C/c1cccnc1 | -27.3% | 16.9% | -4.6% | 2.7
CCCCn1c(CCC(=O)O)ccc1-c1cccs1 | -11.6% | -26.6% | ? | 11.0
CN(CC(=O)O)Cc1nc2ccccc2[nH]1 | -40.3% | 7.7% | -3.2% | 5.9
O=C(C1CC1)N1CCc2cc(Br)cc(S(=O)(=O)NC3CCCCC3)c21 | 0.6% | -19.1% | 2.3% | 0.5
CN1CCC2(CC1)N=C(c1ccc(F)cc1)C(=S)N2C(=O)c1ccccc1 | -10.3% | -5.3% | 4.4% | -2.3
CCCCN1C(=O)C2C(C(=O)Nc3cccc(OC)c3)C3C=CC2(O3)C1C(=O)NC1CCCCC1C (stereo not drawn) | -4.5% | 23.5% | 1.5% | 6.7
CCOC(=O)CCCCCN1C(=O)c2cccc3cccc(c23)C1=O | -11.5% | 2.5% | 2.4% | ·
Cc1ccc(CN2CC(C(=O)N3CCN(c4ccccc4O)CC3)CC2=O)cc1 (stereo not drawn) | · | -13.0% | 0.6% | ·
C=CCn1c(SCC(=O)Nc2c(C)n(C)n(-c3ccccc3)c2=O)nc2sc(C)c(C)c2c1=O | 1.0% | 8.2% | 7.1% | -4.6
CCOCCCNCc1ccc(OC)c(OC)c1 | -3.2% | -8.4% | -0.9% | -5.3
Cc1ccc(/C=C/C(=O)O)cc1S(=O)(=O)N1CCCCC1 | -6.7% | 6.0% | -5.5% | -1.2
O=C(c1ccc(=O)[nH]c1)N1CCN(S(=O)(=O)c2ccc(Cl)cc2)CC1 | -1.4% | -9.6% | -1.9% | ·
COC(=O)Oc1ccc(/C=N/NC(=O)CN(c2ccccc2Br)S(C)(=O)=O)cc1OC | -3.6% | 20.9% | -2.8% | 2.7
CC(OC(=O)C1CC1)C(=O)Nc1cccc(S(=O)(=O)N2CCOCC2)c1 (stereo not drawn) | · | 3.0% | 0.9% | ·
Cc1cc(CN2CCCC(C(=O)Nc3cccc(-n4cccn4)c3)C2)cc(C)c1O (stereo not drawn) | 19.7% | -5.5% | -0.8% | ·
C=CCN1CC(c2nc3ccccc3n2Cc2cccc3ccccc23)CC1=O (stereo not drawn) | -8.2% | 5.1% | 15.1% | -11.3
O=C(CCNS(=O)(=O)c1ccc(Br)s1)N1CCN(c2ccccc2)CC1 | 1.3% | 1.7% | 8.2% | -5.9
CCN(CC)CCNC(=O)CCCCCn1c(=O)[nH]c2cc(C(=O)OC)ccc2c1=O | 2.9% | 56.9% | ? | -1.5
O=[N+]([O-])c1ccc(-c2cc(-c3ccc(Cl)cc3)n[nH]2)cc1 | -40.7% | -2.9% | -2.7% | -2.0
COCCCN=C1NN=C(c2cc(C)n(-c3ccccc3F)c2C)CS1 | 10.9% | -10.2% | 5.0% | -7.3
COc1ccc(NC(=O)CCCn2c(=O)[nH]c3ccccc3c2=O)cc1 | -10.1% | -6.4% | -0.4% | 4.4
CCOC(=O)c1ccc(NC(=O)COc2cc3oc(=O)c(CC(C)O)c(C)c3cc2Cl)cc1 (stereo not drawn) | -1.0% | 18.9% | 0.8% | 12.3
O=C(Nc1cccc(S(=O)(=O)NC2=NCCCCC2)c1)c1cc(-c2ccncc2)nc2ccccc12 | 11.0% | 4.5% | 3.0% | -3.5
O=C(CN1CCN(C(=O)c2ccco2)CC1)Nc1c2c(nc3c1CCC3)CCCC2 | -7.7% | 3.2% | -0.7% | 3.5
CN(CCc1ccccn1)C(=O)c1nn2c(C(F)(F)F)cc(-c3ccco3)nc2c1Cl | -0.3% | -18.9% | ? | -13.3
Cc1ccc(C)c(OCc2nc3ccc(S(=O)(=O)Nc4c(C)n(C)n(-c5ccccc5)c4=O)cc3[nH]2)c1 | 8.5% | -10.8% | -1.7% | 0.2
O=C(Nc1nccs1)c1ccc(COc2c(F)c(F)cc(F)c2F)o1 | · | 0.8% | 0.2% | ·
COc1ccc(CCNC(=O)CCCn2nc(C)c([N+](=O)[O-])c2C)cc1OC | -5.2% | -6.9% | 0.1% | 0.6
Cc1cc(NC(=O)c2cc(C(C)C)on2)no1 | -42.5% | -2.4% | 1.4% | -11.9
CS(=O)(=O)N(CC(=O)Nc1ccccc1C(=O)N1CCOCC1)c1ccc(Cl)cc1 | 1.5% | 19.1% | 0.6% | 3.1
Cc1ccccc1-c1nn[nH]n1 | -1.6% | 0.6% | -1.7% | 3.3
Cc1cc(=O)oc2cc(NC(=O)c3cc(F)ccc3F)ccc12 | · | -7.7% | -6.6% | ·
COc1ccc(CN(CC2CCCO2)C(=O)c2cc3ccccc3oc2=O)cc1 (stereo not drawn) | 0.6% | 5.1% | 0.3% | -3.9
CCN1CCN(c2cc3nc(C)n(Cc4ccccc4)c(=O)c3cc2NC(=O)c2ccccc2F)CC1 | -14.8% | -13.2% | 1.1% | 2.8
CN(C(=O)CSc1nnc(-c2c[nH]c3ccccc23)n1C1CC1)C1CCS(=O)(=O)C1 (stereo not drawn) | · | -9.0% | 0.2% | ·
Cc1cc(C)nc(N2CCC(C(=O)NCc3ccco3)CC2)n1 | -1.5% | 8.8% | -4.7% | -0.1
CC(C(=O)OCC(=O)c1cccc([N+](=O)[O-])c1)N1C(=O)C2C3C=CC(C3)C2C1=O (stereo not drawn) | 0.5% | 5.7% | -4.3% | ·
O=C1C(=O)N(Cc2ccncc2)C(c2cccc(O)c2)/C1=C(\O)c1ccc2c(c1)OCCO2 (stereo not drawn) | -2.7% | 4.7% | -1.9% | ·
COc1c(C)cc(Br)cc1C(=O)Nc1cccc(-c2nc3ncccc3o2)c1 | -1.2% | -3.5% | -5.3% | -1.6

New compounds follow.
SMILES | miR-21 FLuc | Rango release inh | Rango complex inh | GLA inh pH 4.5
O=C(CNC(=S)N(CCCN1CCOCC1)Cc1cccs1)NC1CCCC1 | -2.6% | -13.4% | 1.4% | 3.6
Cc1c(C(=O)N(Cc2nccn2C)C(C)C)oc2c(F)cccc12 | -2.0% | 6.6% | -0.9% | ·
CC(C)(C)N1OC2CC1c1nc3ccccc3n1C2 (stereo not drawn) | 1.8% | -2.3% | -2.2% | 0.1
COc1ccc(-c2ccccc2NC(=O)C2CCCN(Cc3ccco3)C2)cc1 (stereo not drawn) | 1.6% | -1.0% | -1.0% | ·
COc1ccc(CCNC2CC(=O)N(C3CCCCC3)C2=O)cc1OC (stereo not drawn) | -5.1% | -7.9% | -8.2% | 0.0
Cc1[nH]c2ccccc2c1CN1CCC(CO)(Cc2ccccc2)CC1 | -2.6% | 3.6% | 3.2% | -0.9
C=CCn1c(Cc2cccc3ccccc23)n[nH]c1=S | -1.7% | 3.4% | 2.7% | -14.5
CCN1CCN(C(=O)c2cc(COc3c(C)cccc3C)on2)CC1 | -13.3% | -5.5% | 0.2% | ·
Cc1ccc(C23CC4CC(CC(CC(=O)NC(C)(C)CO)(C4)C2)C3)cc1 | 0.1% | 17.9% | -0.2% | ·
CCc1ccc(NS(=O)(=O)c2cc3c4c(c2)CCN4C(=O)CC3)cc1 | · | -5.8% | 4.8% | ·
CC1CCCCN1C(=O)Cn1c(=O)n(C2CCCCC2)c(=O)c2ccccc21 (stereo not drawn) | 2.3% | 16.1% | 0.4% | 3.2
O=C(Cc1ccc2c(c1)OCCO2)c1c(O)cc(O)cc1O | -36.8% | -21.0% | -7.2% | -5.2
CC1(C)CC(=O)C(C=NCCN2CCN(CCCCS(=O)(=O)O)CC2)=C(O)C1 | -6.9% | 3.7% | -0.2% | -0.2
COc1cc(CCC(=O)OCC(=O)Nc2ccccc2OC(F)F)cc(OC)c1OC | -0.4% | 12.4% | 0.2% | 1.4
COC(=O)c1ccc(COc2ccc(/C=N/O)cc2)o1 | -2.2% | -1.3% | 3.3% | 4.3
COc1cc(O)c(C(CCN2CCCC(C)C2)c2cc(OC)c(OC)c(OC)c2)c(OC)c1 (stereo not drawn) | -0.8% | -2.0% | -4.2% | -2.3
CC[C@@H]1CC=C[C@H]2[C@H]1C(=O)N(Cc1ccccc1)[C@H]2c1ccc(OC)c(Cl)c1 | 16.8% | 1.9% | -0.2% | -5.1
Nn1c(SCc2ccc(Br)cc2)nnc1-c1ccncc1 | -18.8% | -14.9% | -0.6% | 2.2
O=C(c1ccc(Cl)cc1)N1CCC(O)(CSc2ccc(Cl)cc2Cl)CC1 | 1.1% | 5.0% | 2.0% | -23.8
CCOc1ccc(C(Nc2ccc(C)cc2)P2(=O)OCCC(C)O2)cc1 (stereo not drawn) | -4.3% | -3.7% | -2.4% | -0.6
O=C(C[n+]1cc(-c2ccccc2)n2c1CCC2)Nc1nc(-c2ccc(F)cc2)cs1 | -11.3% | -15.1% | 1.2% | -5.1
O=C1NN(c2ccccc2)C(=O)/C1=C\c1cccc(OC(=O)c2cccs2)c1 | -1.8% | 2.0% | 1.7% | -2.5
O=S(=O)(NC1C2CC3CC(C2)CC1C3)c1ccc(F)cc1 (stereo not drawn) | · | -0.1% | 3.4% | ·
CCOc1cc(/C=C2\SC(=S)N(C(C(=O)O)c3ccccc3)C2=O)ccc1O (stereo not drawn) | 0.7% | ? | ? | -1.0
